Screens deposited in PubChem by National Center for Advancing Translational Sciences (NCATS).
Menin MLL FP FL = qHTS Assay for Inhibitors Targeting the Menin-MLL Interaction in MLL Related Leukemias: Competition With Fluorescein Labeled MLL-derived Peptide. Fluorescence polarization, fluorescein-MLL peptide displacement from menin. FP activity change, % at 61.4 µM. 290,000 tested, under 10 active; inconclusive = falling polarisation curve, or a change in total fluorescence; inactive = total fluorescence flat and polarisation flat or rising; no compound was filed as active; the % refers to the polarisation; negative = inhibition;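 note: % of control where 0% means no effect; inhibitors lower the polarisation; unlabelled MLL peptide was the positive control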
gsp ag = qHTS for Agonist of gsp, the Etiologic Mutation Responsible for Fibrous Dysplasia/McCune-Albright Syndrome: qHTS; gsp mutant cells, cAMP HTRF, 30 min; control for the full effect not named in the record; Potency, µM (highest dose often 76.9 µM), inactives show top-dose activation (cAMP increase), actives largely listed as activators; 340,000 tested, 0.13% active; AID 624287, 2012; active = well fitted activation curve with a large enough effect; inconclusive = small, poorly fitted or top-dose-only effect, or another doubt; inactive = no such curve, though single readings can be large or run the other way; cell line not stated here;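 note: phosphodiesterase inhibitor Ro 20-1724 added with compounds to block cAMP breakdown; potency is the fitted concentration of half-maximal effect; nearly all actives have a fitted effect of over 60% in size; about a fifth of the inactives were tested at one dose only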
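Cells stably selected in G418 were plated at 2000/well, grown 16-24 hr, then given compounds in DMSO with the PDE inhibitor […] (300 uM solution added) for 30 min at 37C; cAMP was read by HTRF.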
gsp antag = qHTS for Antagonists of gsp, the Etiologic Mutation Responsible for Fibrous Dysplasia/McCune-Albright Syndrome: qHTS; gsp-mutant cells, cAMP HTRF, 30 min; control for the full effect not named in the record; Potency, µM (highest dose often 76.9 µM), inactives show top-dose activity change, negative = inhibition, most hits filed as inhibitors; 340,000 tested, 0.4% active; AID 624288, 2012; active = falling curve of any shape with a large fitted effect; inconclusive = falling curve, mostly with a smaller effect; inactive = flat or rising curve; cell line not stated here;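 note: intracellular cAMP measured with PDE inhibitor Ro 20-1724 present during compound exposure; potency is the fitted concentration of half-maximal effect; % is set by controls: 0 for no effect and ±100 for the full control effect; nearly all actives have a fitted effect of over 65% in size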
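HTRF cAMP measurement after 30 min RT detection following 30 min, 37C compound treatment alongside […] (added as 300 uM solution) in G418-selected cells seeded at 2000/well and grown 16–24 h.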
TRPV1 potentiator = HTS Assay for Compounds that Act as Potentiators of the Vanilloid Receptor 1 | Transient receptor potential cation channel subfamily V member 1 (Homo sapiens), Q8NER1 | TRPV1-expressing cells, Fluo-8 calcium influx, capsaicin EC20 potentiation; host cell line not named in the record; control for the full effect not named in the record | potentiation, % at 8.33 µM | 320,000 tested, 0.02% active | AID 540277, 2011; active means potentiation above 80%; inconclusive means 30% to 80%; inactive means below 30%; note: 0% is about no effect
Target sequence (Q8NER1 whole entry, looked up): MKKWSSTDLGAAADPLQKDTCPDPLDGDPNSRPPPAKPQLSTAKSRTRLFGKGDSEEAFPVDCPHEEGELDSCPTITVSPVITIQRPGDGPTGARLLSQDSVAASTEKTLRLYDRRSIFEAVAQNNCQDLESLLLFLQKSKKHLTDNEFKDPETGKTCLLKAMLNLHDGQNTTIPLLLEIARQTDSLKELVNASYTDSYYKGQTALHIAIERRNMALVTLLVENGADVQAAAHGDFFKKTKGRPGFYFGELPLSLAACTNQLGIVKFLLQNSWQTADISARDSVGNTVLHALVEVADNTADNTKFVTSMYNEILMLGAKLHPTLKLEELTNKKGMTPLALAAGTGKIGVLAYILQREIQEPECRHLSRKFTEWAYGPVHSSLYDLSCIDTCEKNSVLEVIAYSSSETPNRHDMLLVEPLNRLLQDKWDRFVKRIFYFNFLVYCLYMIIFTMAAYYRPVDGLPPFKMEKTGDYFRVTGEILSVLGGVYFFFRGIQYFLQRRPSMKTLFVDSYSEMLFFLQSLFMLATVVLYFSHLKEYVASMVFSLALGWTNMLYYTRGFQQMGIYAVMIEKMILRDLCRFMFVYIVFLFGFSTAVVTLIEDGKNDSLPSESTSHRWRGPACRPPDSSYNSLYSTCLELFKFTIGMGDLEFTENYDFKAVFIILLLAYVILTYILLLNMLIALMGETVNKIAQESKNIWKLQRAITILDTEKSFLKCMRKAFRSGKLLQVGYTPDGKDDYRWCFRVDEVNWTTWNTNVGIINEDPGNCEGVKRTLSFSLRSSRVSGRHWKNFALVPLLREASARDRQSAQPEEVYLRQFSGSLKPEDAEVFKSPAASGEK
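TRPV1-expressing cells were cultured overnight at 35.5C and loaded with Fluo-8 calcium dye for 40 to 90 min at room temperature. After a 10 s baseline, compound was added and calcium influx was read kinetically for 3 min (ex 480/em 520 nm).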
TRPML1 inh = qHTS for Inhibitors of the Human Mucolipin Transient Receptor Potential 1 (TRPML1); Mucolipin-1 (Homo sapiens), Q9GZU1; TRPML1-inducible cells, Ca2+ dye fluorescence, FDSS; active compounds read low; inhibition of EC80 agonist-evoked calcium signal; activity change, negative = inhibition, % (test concentration not listed); 390,000 tested, 0.02% active; in the data active means activity change below about -50%; inconclusive means about -30% to -50%; inactive means above about -30%;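 note: stimulus is agonist 54-4 at its EC80 concentration; % is set by controls: 0 for no effect and ±100 for the full control effect; compound concentration not given in the record; the text of the record puts the active cut at -80%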
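TRPML1-DL cells, Tet-induced overnight (~16 h, 37 °C) at 1,500 cells/well, were loaded with Ca8 no-wash dye plus quencher for 45-90 min at room temperature. Compounds were pinned during FDSS kinetic reading; agonist 54-4 at EC80 (4 uM final) then added.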
ClpP mod = qHTS Assay for Activators of ClpP; Potency, µM (highest dose often 57.5 µM), without a hit: at the top dose activity change, negative = active; 340,000 tested, 1.9% active; purified B. subtilis ClpP, FRET peptide cleavage, 20 min; AID 651965, 2013; ATP-dependent Clp protease proteolytic subunit (Bacillus subtilis (strain 168)), P80244; active = well fitted falling curve with a large enough effect; inconclusive = small, poorly fitted or top-dose-only effect; inactive = no such curve, though single readings can be large or run the other way; note: potency is the fitted concentration of half-maximal effect; the source files actives as falling curves though it sought activators and does not explain the sign; nearly all actives have a fitted effect of over 65% in size; many hits overshoot -100%
Target sequence (P80244 whole entry, looked up): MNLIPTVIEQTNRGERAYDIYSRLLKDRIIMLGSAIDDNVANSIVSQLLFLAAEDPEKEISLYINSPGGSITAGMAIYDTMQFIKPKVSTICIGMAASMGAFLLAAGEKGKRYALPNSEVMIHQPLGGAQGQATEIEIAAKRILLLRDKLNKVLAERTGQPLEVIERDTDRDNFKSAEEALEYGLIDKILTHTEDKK
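ClpP 10 microg/mL final, pH 8 Tris/KCl buffer with BSA, glycerol, Tween-20; compound pinned in; FRET-FV substrate; RT 20 min; Ex320/Em430; ΔFRET vs ADEP 5.8 microM, DMSO, no enzyme.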
Sfp PPTase inh = qHTS Assay for Inhibitors of Bacillus subtilis Sfp phosphopantetheinyl transferase (PPTase); Potency, µM, for the others: max response, negative = inhibition, most hits filed as inhibitors; Biochemical Sfp PPTase activity, qHTS; 4'-phosphopantetheinyl transferase ffp (Bacillus subtilis), Q9F4F7; 310,000 tested, 3.5% active; active = well fitted inhibition curve with a large enough effect; inconclusive = small, poorly fitted or top-dose-only effect, or another doubt; inactive = no such curve, though single readings can be large or run the other way;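 note: the enzyme is Sfp with the accession as filed and its product quenches rhodamine fluorescence; potency is the fitted concentration of half-maximal effect; 0% = enzyme reaction without inhibitor and -100% = no enzyme wells; top concentration of the series not given in the record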
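Sfp 15 nM + cpd, 15 min RT; start w/ rhodamine-CoA 5 uM, BHQ-2-YbbR 12.5 uM (final); 50 mM Hepes pH 7.6, 10 mM MgCl2, 0.01% NP-40, 0.01% BSA; read 525/598 nm at 0 and 30 min.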
Numbers without * were called inactive; ? = inconclusive; nt = not tested or not shown; & = joins results of further samples; [ ] = remark or other dose.

SMILES	Menin MLL FP FL	gsp ag	gsp antag	TRPV1 potentiator	TRPML1 inh	ClpP mod	Sfp PPTase inh
COc1cc(OC)cc(C(=O)NN2CCOCC2)c1	nt	-23%	4%	28	-19	-1.7%	-3%
O=C1OCCC/C1=C\c1ccc2c(c1)OCO2	-1.9	1%	-11%	3	6	-0.3%	-10%
COc1ccc(Cl)cc1S(=O)(=O)NCc1nc2nc(C)cc(C)n2n1	0.0	-16%	6%	-5	-2	-3.6%	-5%
COc1ccc(CC(=O)NCc2ccc3c(c2)cc(C)n3C)cc1	-0.4	7%	7%	-13	-21	-11%	18%
Oc1ccc2ccccc2c1C=NC12CN3CCN(CN(C3)C1)C2	2.0	13%	6%	nt	11	-7.4%	?
Cc1cccc(C)c1NC(=O)CNC(=O)c1ccc(NS(=O)(=O)c2ccc3[nH]c(=O)[nH]c3c2)cc1	nt	-3%[15.4 µM]	9%	0	-4	-1.6%	nt
CC(=O)C1=C(O)C(=O)OC1c1ccc(C)cc1 (stereo not drawn)	-1.2	-16%	-1%	3	-13	nt	8%
COc1ccccc1CNC(=O)CCc1ccccc1	2.8	-8%	5%	-9	-3	-2.1%	18%
COC(=O)c1sccc1NC(=O)COc1ccc(C)cc1	-0.2	12%	-5%	-5	54	-7.6%	21%
Cc1ccc(C(=O)N2CC(C(=O)O)C2)cc1	-3.9	2%[15.4 µM]	5%	-23	5	nt	9%
CCOC(=O)C1=C(C)N(C2CCCCC2)C(=O)C1	-0.1	-1%	1%	-12	2	?	10%
Cc1cc(O)cc2c1C1CCC3(C)C(O)CCC3C1C=C2 (stereo not drawn)	nt	18%	12%	nt	9	nt	nt
O=C1OC(c2ccccc2)Sc2ccccc21 (stereo not drawn)	nt	?	-2%	nt	1	nt	nt
CCC(=O)Nc1nc(C)c(C(=O)Nc2cccc(Cl)c2)s1	-0.8	-37%[inhibitor]	-9%	2	-20	1.6%	8%
CS(=O)(=O)c1ncc(Cl)c(C(=O)Nc2ccc3ccccc3c2)n1	-5.3	-19%	4%	2	-1	nt	13µM*
Cc1nc(NC(=O)c2ccccc2)sc1-c1csc(Nc2cccc(Cl)c2)n1	1.6	nt	nt	-2	nt	nt	2%
O=C(Cc1ccccc1)NCC(=O)OCC(=O)c1ccc(Cl)cc1	nt	-19%	5%	23	5	-0.7%	11%
COc1cc(C(=O)NC2CCCCCCC2)cc(OC)c1OC	nt	25%[15.4 µM]	9%	nt	18	nt	nt
CCOC(=O)c1sc(NC(=O)CSc2nnc(-c3ccco3)n2CC)c(C(=O)OCC)c1C	0.9	?	-23%	17	4	-0.4%	25µM*
CCOc1cc(C)nc(Oc2ccc(=O)[nH]n2)n1	-3.2	-13%	-1%	6	-9	0.0%	-7%
O=C(c1ccc2c(c1)OCCO2)N(c1ccccn1)C1CCCCC1	4.2	-1%	-1%[15.4 µM]	nt	35	-0.8%	16%
CCn1c(Cc2ccccc2)nnc1SCC(=O)Nc1nc(C)cs1	1.2	?	5%	-2	2	-1.4%	-14%
CCOc1ncccc1C(=O)OCC(=O)Nc1ccc2c(c1)OCO2	-1.6	?	-14%	3	20	-0.2%	2%
Cc1cc(C)nc(SCc2nnc(SCC(=O)Nc3nc(-c4ccccc4)cs3)n2C)n1	2.0	23%	-11%	?	-4	-0.2%	-14%
O=C(CN1N=C(c2ccccc2)CCC1=O)NCc1cccs1	-2.2	3%[15.4 µM]	1%	-15	27	-3.6%	7%
CCCCC(=O)NC(=S)Nc1cc(C(=O)O)ccc1Cl	3.8	22%	-9%	-22	12	-5.2%	4%
CCOC(=O)c1ccc(NC(=O)c2cc3ccccc3o2)cc1	-0.3	-26%	?	-18	7	?	79µM*
CCN1CCN(CCCNC(=O)c2ccc(/C=C3/Sc4ccccc4N(Cc4ccccc4F)C3=O)cc2)CC1	6.9	0%	-13%	0	36	-6.7%	50µM*
Cc1ccc2c(c1)c(=O)c1c3n2CCN(C(=O)CCl)C3CC1 (stereo not drawn)	-20	23%	-9%	-2	-21	-11%	79µM*
Cc1ccc(CC(=O)N(Cc2ccccc2)c2ccccn2)cc1	3.6	10%	8%	-8	-1	-0.7%	12%
CCOC(=O)C1=C(C)N(CCCC(=O)O)C(=O)NC1C(CC)CC (stereo not drawn)	nt	nt	1%	nt	0	0.3%	nt
Cc1ccc(NC(=O)Cn2c(=O)oc3ccccc32)cc1C	-2.4	10%[15.4 µM]	7%	-17	-3&30	-0.7%&0.5%	-3%
COc1ccc(-c2noc(C3CCCN(S(=O)(=O)c4cccc(Cl)c4C)C3)n2)cc1OC (stereo not drawn)	2.0	-5%	3%	-8	-8	-19%	-7%
Cc1cc(=O)[nH]c(SCC(=O)Nc2ccc(N3CCCCC3)cc2)n1	nt	?	-3%	nt	-18	0.4%	nt
Cc1ccc(-c2nnc(CN3CCN(C)CC3)o2)cc1	1.8	18%	9%	13	3	nt	14%
CC(=O)NC1CCCN(O)C(=O)/C=C(\C)CCOC(=O)C(NC(C)=O)CCCN(O)C(=O)/C=C(\C)CCOC(=O)C(NC(C)=O)CCCN(O)C(=O)/C=C(\C)CCOC1=O (stereo not drawn)	-7.8	nt	11%	7	nt	-0.8%	56µM*
CCC[C@H]1CN(c2ccc(Br)cc2)C(=O)[C@@H]1CC(=O)NC	nt	13%	nt	nt	-6	0.0%	nt
CCN(C(=O)Cn1c(=O)n(Cc2ccccc2)c(=O)c2ccccc21)c1cccc(C)c1	0.0	-31%[inhibitor]	?	-9	3	-2.7%	3%
N#C/C(=N\Nc1ccccc1)C(=N)N1CCCCC1	3.1	-23%	-6%[15.4 µM]	-15	-5	-3.3%	5%
O=C(NC1CCCCC1)C(c1ccc(F)cc1)N(CCN1CCOCC1)C(=O)c1ccc(-c2ccccc2)[nH]1 (stereo not drawn)	0.5	23%[15.4 µM]	3%	-3	-14	nt	9%
CC(C)CNC(=O)C1CCN(c2ccc(S(=O)(=O)N3CCOCC3)cc2)CC1	-5.8	2%	-2%	6	-14	-2.1%	-2%
COc1cc2c(cc1OC)C(COc1ccccc1OC)N(C(=O)C(C)C)CC2 (stereo not drawn)	-0.1	5%[15.4 µM]	4%	-5	-8	nt	11%
CN1CCN(C(=O)c2ccccc2NS(=O)(=O)c2ccc(F)cc2)CC1	nt	?	8%	-4	-11	-2.3%	nt
Cn1cc(S(=O)(=O)c2ccccc2)n(C)c1=O	1.2	-2%[15.4 µM]	16%	3	-7	-1.3%	7%
COc1ccc(-c2nnc(SCC(=O)Nc3ccccc3OC)o2)cc1	-0.2	-13%	3%	12	-20	-0.8%	0%
CC1(C)CCCN(C(=O)N2c3ccccc3Sc3ccccc32)C1	-1.3	-2%	5%	-6	6	-1.4%	9%
CCN(CC)c1ccc(/C=N\N2CCN(Cc3ccc(C)cc3)CC2)cc1	0.7	1%[15.4 µM]	-2%	-1	-9	nt	-1%
CC1=C(C(N)=O)C(c2sccc2C)n2nnnc2N1 (stereo not drawn)	4.5	3%	3%	-9	6	-1.3%	11%
CC12CCC(C(=O)NCc3ccc(F)cc3)(OC1=O)C2(C)C (stereo not drawn)	-1.5	-6%[15.4 µM]	18%	-2	-4	2.1%	13%
COc1ccc(CN2C(=O)C(C)Nc3ncnc(N4CCN(c5ccccn5)CC4)c32)cc1 (stereo not drawn)	nt	nt	-5%	nt	2	-9.6%	nt

(list continues)
SMILES	Menin MLL FP FL	gsp ag	gsp antag	TRPV1 potentiator	TRPML1 inh	ClpP mod	Sfp PPTase inh
N#CCc1ccccc1C(=O)OCC(=O)N(Cc1ccccc1)Cc1ccccc1	nt	6%	?	4	-5	-0.4%	nt
CCCCCCCC(=O)NNC(=O)c1ccc(F)cc1	-0.6	1%	7%	-5	25	-2.7%	7%
CC(C)(C)OC(=O)C[C@@H]1C/C=C\C[C@@H](CC(=O)N(CCO)Cc2ccccc2)C(=O)N[C@H](C(C)(C)C)COC1=O	nt	2%	4%	nt	-11	2.0%	nt
CC1(C)Cc2c(sc3nc(=S)[nH]c(N)c23)CO1	31[activator]	nt	nt	7	nt	nt	25µM*
Cc1cc(NC(=O)CSc2nnnn2C)n(-c2ccccc2)n1	0.7	?	11%	10	-9	-1.6%	3%
O=C(OCC(=O)N1CCOCC1)c1ccc(Cl)nc1	0.4	-8%	11%	-8	-5	-1.6%	-6%
Cc1ccccc1CC1(CO)CCCN(Cc2ccn[nH]2)C1 (stereo not drawn)	-2.8	-6%	3%	-8	5	nt	17%
CC(=O)O[C@H]1C[C@@H]2CC[C@@H]3[C@H](CC[C@@]4(C)[C@H]3C[C@H]([N+]3(C)CCCCC3)[C@@H]4OC(C)=O)[C@@]2(C)C[C@@H]1[N+]1(C)CCCCC1	nt	nt	-7%	nt	9	0.7%	nt
O=C(OC(C(=O)O)C(OC(=O)c1ccccc1)C(=O)NCc1ccccc1)c1ccccc1 (stereo not drawn)	-1.0	22%	7%	-38	20	-2.3%	13%
COc1ccc2c(C)c(CC(=O)N3CCN(C(=O)C4COc5ccccc5O4)CC3)c(=O)oc2c1C (stereo not drawn)	0.4	33%	?	13	-6	3.9%	14%
Cc1cccc(Cc2cnc(N3C(=N)SC(c4ccccc4)C3=O)s2)c1 (stereo not drawn)	4.0	-38%[inhibitor]	13%	14	-4	0.8%	9%
O=c1[nH]cnc2sc3c(c12)CCN(Cc1ccccc1)C3	4.2	?	-2%	2	-2	?	15%
CSc1nc2sc3c(c2c2nnnn12)CCC3	3.6	nt	nt	1	nt	nt	10%
